Screening results as filed in PubChem.
CDC25B-CDK2 inh – human CDC25B-CDK2/CyclinA binding inhibition | P30305+P24941 | HTRF CDC25B-CDK2/CyclinA binding, anti-His/anti-Flag; active compounds read high | z-score (concentration not given with the values) | 94,000 compounds, 0.72% hits | AID 1259370;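 further: score is relative to mean and SD of negative controls; strong numbers were not always called active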
TAR Tat displ – HIV-1 TAR-Tat binding disruption; HIV-1 TAR RNA, Tat peptide displacement FRET; active compounds read high; z-score (test concentration not listed); 100,000 compounds, 0.6% hits; AID 1259389;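 further: score is relative to mean and SD of negative controls; some compounds called inactive have numbers as strong as hits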
Numbers without * were called inactive; & = joins results of further samples.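 How the source made its calls: active means z-score from 3 up in half or more of its runs; inactive means the rest.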

Results for NC(=O)c1n[nH]nc1Nc1ccccc1 ?
CDC25B-CDK2 inh: -3.12

Results for CC(=O)Oc1cccc(C(=O)O)c1OC(C)=O ?
TAR Tat displ: -7.06

How did Cc1nc(Nc2ccccc2)sc1C(=O)c1cc2ccccc2s1 do in these assays?
CDC25B-CDK2 inh: -0.04

Results for C=CCc1ccccc1OCc1cc(=O)n2oc(C)cc2n1 ?
CDC25B-CDK2 inh: 0.04; TAR Tat displ: -1.14

How did Cn1c(=O)oc2cc(S(=O)(=O)N3CCN(C(c4ccccc4)c4ccc(Cl)cc4)CC3)ccc21 (centres undefined) do in these assays?
CDC25B-CDK2 inh: -1.54

How did CN(C)C(=O)C(=O)c1c(-c2ccccc2)[nH]c2ccc(Cl)cc12 do in these assays?
CDC25B-CDK2 inh: -0.46; TAR Tat displ: 1.31

How did Cc1c(CCO)c(=O)oc2n[nH]c(-c3ccccc3)c12 do in these assays?
CDC25B-CDK2 inh: -2.35

Results for COc1ccc2sc(Nc3nc(C)n(-c4ccccc4)c(=O)n3)nc2c1 ?
CDC25B-CDK2 inh: -0.57; TAR Tat displ: -3.42

What do the screens show for `C#CC1(NC(=O)/C=C/C(=O)O)CCCCC1`?
CDC25B-CDK2 inh: -2.51

What do the screens show for `COC(=O)c1c(-c2ccc(Cl)cc2)noc1N1CCC(c2ccccc2)C1` (centres undefined)?
TAR Tat displ: 1.03

How did CS(=O)(=O)c1ccc(-c2ccc(NS(=O)(=O)c3ccccc3F)cc2)nn1 do in these assays?
TAR Tat displ: 0.55

What do the screens show for `COc1ccc(N2CCN(c3ncc4c(n3)CCN(Cc3ccc(OC)c(OC)c3)C4)CC2)cc1`?
TAR Tat displ: 0.22

What do the screens show for `Nc1ncnc2oc(-c3ccccc3)cc12`?
CDC25B-CDK2 inh: -0.59

How did CC(C)(C)c1nnc2sc(-c3ccccc3Cl)nn12 do in these assays?
CDC25B-CDK2 inh: 0.34; TAR Tat displ: 0.38

What do the screens show for `COC(=O)c1sc(N2C(=O)c3oc4ccc(C)cc4c(=O)c3C2c2cccc(O)c2)nc1C` (centres undefined)?
CDC25B-CDK2 inh: -1.08; TAR Tat displ: 0.67

Results for O=C1CC(=O)Nc2cc(S(=O)(=O)Nc3ccc(F)c(Cl)c3)ccc2N1 ?
TAR Tat displ: -2.43

How did CC(/C=C/C(=O)NO)=C\[C@@H](C)C(=O)c1ccc(N(C)C)cc1 do in these assays?
TAR Tat displ: 2.42&0.87

Results for COCCn1c(SCC(=O)Nc2ccc(OC)c(OC)c2)nc2c(c1=O)SCC2 ?
CDC25B-CDK2 inh: -3.51; TAR Tat displ: 2.05

Results for CCN1C(=O)CSc2ccc(C(=O)NCCCN3CCOCC3)cc21 ?
CDC25B-CDK2 inh: 0.86

How did Cc1c(Br)c(C(F)(F)F)nn1CC(=O)Nc1c(F)cc(F)cc1Br do in these assays?
CDC25B-CDK2 inh: -2.95

Three compounds out of the list, arranged by SMILES length, ascending.
How did Cc1c(CCO)c(=O)oc2n[nH]c(-c3ccccc3)c12 do in these assays?
CDC25B-CDK2 inh: -2.35

Results for CCN1C(=O)CSc2ccc(C(=O)NCCCN3CCOCC3)cc21 ?
CDC25B-CDK2 inh: 0.86

How did CC(/C=C/C(=O)NO)=C\[C@@H](C)C(=O)c1ccc(N(C)C)cc1 do in these assays?
TAR Tat displ: 2.42&0.87

Returning to the listing with the 5 entries that preceded the break.
Results for O=C1CC(=O)Nc2cc(S(=O)(=O)Nc3ccc(F)c(Cl)c3)ccc2N1 ?
TAR Tat displ: -2.43

How did CC(/C=C/C(=O)NO)=C\[C@@H](C)C(=O)c1ccc(N(C)C)cc1 do in these assays?
TAR Tat displ: 2.42&0.87

Results for COCCn1c(SCC(=O)Nc2ccc(OC)c(OC)c2)nc2c(c1=O)SCC2 ?
CDC25B-CDK2 inh: -3.51; TAR Tat displ: 2.05

Results for CCN1C(=O)CSc2ccc(C(=O)NCCCN3CCOCC3)cc21 ?
CDC25B-CDK2 inh: 0.86

How did Cc1c(Br)c(C(F)(F)F)nn1CC(=O)Nc1c(F)cc(F)cc1Br do in these assays?
CDC25B-CDK2 inh: -2.95

Results for COc1ccccc1NC1SC(=O)N(Cc2cccc(C(=O)O)c2)C1=O (centres undefined) ?
CDC25B-CDK2 inh: 0.42

Results for CC(C)(C)NC(=O)NCCn1cnc2cc(C(=O)N3CCCC3)ccc21 ?
TAR Tat displ: 0.58

How did CC(C)CCNC(=O)c1ccc(N2CCSc3ncccc32)s1 do in these assays?
TAR Tat displ: 0.49

What do the screens show for `O=C(CN1C(=O)c2ccccc2S1(=O)=O)Nc1ccc(Cl)cc1`?
CDC25B-CDK2 inh: -1.09

Results for CC1CN=C(N(CCc2ccccc2)C(=O)Nc2ccccc2)S1 (centres undefined) ?
CDC25B-CDK2 inh: -0.55

How did CN1C(=O)Cc2cc(S(=O)(=O)CCC(=O)NCCc3ccc(S(N)(=O)=O)cc3)ccc21 do in these assays?
TAR Tat displ: 0.76

Results for Cc1c(C(=O)NCc2cccnc2)oc2ccc3c(c12)C(=O)CC1(CCCC1)O3 ?
CDC25B-CDK2 inh: -0.62; TAR Tat displ: 2.78

What do the screens show for `Cc1ccc(CN(C(=O)c2ccco2)c2ccccn2)o1`?
CDC25B-CDK2 inh: -1.23; TAR Tat displ: -0.53

What do the screens show for `COc1ccc(S(=O)(=O)Nc2cccc(-c3ccc(N4CCCC4)nn3)c2)cc1`?
TAR Tat displ: 2.25

Results for N#Cc1cnn2c1[nH]c(=O)c1ccccc12 ?
CDC25B-CDK2 inh: -0.81

Results for CC1CN(S(=O)(=O)c2ccc(NC(=O)c3nn(-c4ccccc4)ccc3=O)cc2)CC(C)O1 (centres undefined) ?
CDC25B-CDK2 inh: 1.27; TAR Tat displ: -1.16

What do the screens show for `Cc1ccc(C)c(-c2nc(Cn3c(=O)cc(C)c4c(C)nn(C)c43)c(C)o2)c1`?
TAR Tat displ: 0.63

What do the screens show for `C/C(=N\OCCN1CCCCC1)C1COc2ccccc2O1` (centres undefined)?
CDC25B-CDK2 inh: -2

Results for CNS(=O)(=O)c1cccc2cccnc12 ?
CDC25B-CDK2 inh: -0.63

Results for O=c1c2c(-c3ccccc3)csc2ncn1Cc1ccco1 ?
CDC25B-CDK2 inh: 0.85; TAR Tat displ: 1.08

What do the screens show for `O=c1c2oc3ccccc3c2n(Cc2ccccc2Cl)c(=O)n1Cc1ccco1`?
TAR Tat displ: 1.75

What do the screens show for `COCc1cc(C)nc(OCC2OC(c3ccccc3OC)=NN2C(C)=O)c1C#N` (centres undefined)?
TAR Tat displ: -0.43

What do the screens show for `CCOC(=O)C(C)Oc1ccc2c(C)cc(=O)oc2c1C(=O)c1ccccc1` (centres undefined)?
CDC25B-CDK2 inh: -1.52

Results for CN(C)C(=S)Sc1c(O)c2ccccc2n(C)c1=O ?
CDC25B-CDK2 inh: -1.86

What do the screens show for `Cc1ccc(-c2nnc(SCc3cc(=O)n4nc(C)sc4n3)o2)cc1`?
CDC25B-CDK2 inh: -1.13; TAR Tat displ: 1.34

Results for COc1ccc(C2C=C(c3ccc(Cl)cc3)NC(=O)C2C#N)cc1 (centres undefined) ?
CDC25B-CDK2 inh: 0.31; TAR Tat displ: 0.43

How did O=c1c(N2CCN(c3ccccc3)CC2)csc2ccc(Cl)cc12 do in these assays?
TAR Tat displ: -1.5

What do the screens show for `Cn1c(C(=O)O)c(CC(=O)N2CCCC2)c2ccccc21`?
CDC25B-CDK2 inh: 0.59

How did Cc1c(C(=O)N2CCN(c3ccccc3)CC2)oc2ccc3c(c12)C(=O)CC1(CCCC1)O3 do in these assays?
CDC25B-CDK2 inh: -1.21; TAR Tat displ: 0.61

What do the screens show for `CC(=O)N1N=C2C3CCN(CC3)C2C1c1cccs1` (centres undefined)?
CDC25B-CDK2 inh: -0.52; TAR Tat displ: -0.27

What do the screens show for `CC(C)Cn1cc(NC(=O)N(Cc2ccco2)C2CCN(C)CC2)c2ccccc2c1=O`?
TAR Tat displ: -0.11

What do the screens show for `O=C(Nc1ccc(N2CCN(c3ncccc3C(F)(F)F)CC2)nc1)Nc1ccc(F)cc1F`?
CDC25B-CDK2 inh: -0.24

What do the screens show for `CCCOc1ccc(C2CC(=O)NC3=C2C(=O)CC(C)(C)C3)cc1` (centres undefined)?
CDC25B-CDK2 inh: -0.4; TAR Tat displ: -0.07

What do the screens show for `O=[N+]([O-])c1ccc(N/N=C2\CCOc3ccc(F)cc32)cc1`?
CDC25B-CDK2 inh: -1.84

Results for COc1nc(OC)nc(OC2=CC(=O)CC(C)(C)C2)n1 ?
CDC25B-CDK2 inh: -3.36

Results for O=C1NC(=O)C2(COC(c3ccncc3)OC2)S1 (centres undefined) ?
CDC25B-CDK2 inh: 0.32

What do the screens show for `CCCCc1c(O)nc(SCC(=O)N2CCOCC2)[nH]c1=O`?
CDC25B-CDK2 inh: -1.05; TAR Tat displ: 1.6

How did Cc1ccc(-c2csc3ncn(CCCO)c(=O)c23)cc1F do in these assays?
CDC25B-CDK2 inh: 0.52; TAR Tat displ: -0.45

Results for CCCc1c(C)nc2ncnn2c1NCc1ccccc1 ?
CDC25B-CDK2 inh: -0.92; TAR Tat displ: 0.95

Results for O=C(Cn1cc(C(=O)C2CC2)c2ccccc21)NC1CCCCC1 ?
CDC25B-CDK2 inh: 0.05; TAR Tat displ: 4.06

Results for CCC(Sc1nc2ncccc2o1)C(=O)Nc1ccc(F)cc1 (centres undefined) ?
TAR Tat displ: 1.25

Results for Cc1cc(CNC(=O)Nc2ccc3c(c2)OCO3)c(C)n1-c1ccc(Cl)cc1 ?
TAR Tat displ: -3.86

Results for CCN(Cc1ccccc1)C1=NS(=O)(=O)C(c2ccc(OC)cc2)=C1C ?
CDC25B-CDK2 inh: -0.54; TAR Tat displ: 1.39

What do the screens show for `C=CCN1C(=O)C2(c3ccccc31)c1c(oc3ccccc3c1=O)C(=O)N2CC1CCCO1` (centres undefined)?
CDC25B-CDK2 inh: -1.72; TAR Tat displ: 2.32

How did O=C(O)C1CSC(c2ccccc2F)N1 (centres undefined) do in these assays?
TAR Tat displ: 1.69

How did Cn1nnc2c(N3CCc4ccccc43)ncnc21 do in these assays?
TAR Tat displ: 3.68

What do the screens show for `NC(=O)Cn1c(SCCOc2ccc(Cl)cc2)nc2ccccc21`?
CDC25B-CDK2 inh: 0.43; TAR Tat displ: 0.4

What do the screens show for `COc1ccc(C2=C(C)C(N(C)Cc3ccccc3)=NS2(=O)=O)cc1`?
CDC25B-CDK2 inh: -0.24; TAR Tat displ: 1.01

What do the screens show for `Brc1ccccc1-c1nnc2n1N=C(c1ccccc1)CS2`?
CDC25B-CDK2 inh: -0.67

How did Cc1nc2ccccc2c(C(=O)O)c1-c1ccccc1 do in these assays?
CDC25B-CDK2 inh: -1.93; TAR Tat displ: -0.13

How did COCCN1C(=O)c2[nH]nc(-c3cc(C)ccc3O)c2C1c1ccc(C)cc1 (centres undefined) do in these assays?
CDC25B-CDK2 inh: 0.44; TAR Tat displ: 0.05

What do the screens show for `COC(=O)CN1C(=O)Nc2ccc(Br)cc2C1c1ccccc1` (centres undefined)?
CDC25B-CDK2 inh: -2.17; TAR Tat displ: 0.2

How did CCc1c(CN2CCN(c3ccccc3F)CC2)csc1C do in these assays?
TAR Tat displ: 1.1

How did COc1ccc(S(=O)(=O)N2CCSC2c2ccccc2Cl)cc1 (centres undefined) do in these assays?
CDC25B-CDK2 inh: -0.88; TAR Tat displ: 0.78

What do the screens show for `CC(C)NC(=O)Cc1noc2ccccc12`?
CDC25B-CDK2 inh: -1.71; TAR Tat displ: 1.25

How did Cc1ccnc(NS(=O)(=O)c2ccc(CN3C(=O)c4cccnc4C3=O)cc2)c1 do in these assays?
TAR Tat displ: 0.89

How did COC(=O)c1cc2oc3ccccc3c2n1CC(=O)Nc1cc(OC)cc(OC)c1 do in these assays?
CDC25B-CDK2 inh: -0.9; TAR Tat displ: 0.49

How did Cc1c(NS(=O)(=O)c2cn(C)cn2)c(=O)n(-c2ccccc2)n1C do in these assays?
CDC25B-CDK2 inh: -1.25; TAR Tat displ: 1.21

Results for O=C(CN1N=NC2C(=O)N(c3ccc(F)c(F)c3)C(=O)C21)Nc1ccccc1Cl (centres undefined) ?
TAR Tat displ: 0.54

How did Cc1ccc(-c2nnc3ccc(C)cc3c2C(=O)O)cc1 do in these assays?
CDC25B-CDK2 inh: 0.3; TAR Tat displ: -1.57

How did Cn1cnc(S(=O)(=O)Nc2ccccc2F)c1 do in these assays?
TAR Tat displ: 1.52

Results for CCC(CC)C(=O)Nc1c(C(=O)N2CCN(C(=O)c3ccco3)CC2)oc2ccccc12 ?
CDC25B-CDK2 inh: -1.06; TAR Tat displ: 0.78

How did O=S1(=O)C[C@H](NCCc2cccs2)[C@@H](S(=O)(=O)c2ccccc2)C1 do in these assays?
CDC25B-CDK2 inh: -2.66; TAR Tat displ: 0.48

How did CC(C)NC(=O)C1CCN(c2nnc(-n3cccc3)s2)CC1 do in these assays?
TAR Tat displ: 1.46

How did CCc1nc2n(n1)C1(CCCCC1)[C@@H]1CCCC[C@@H]1N2C(=O)c1ccco1 do in these assays?
CDC25B-CDK2 inh: -0.98; TAR Tat displ: -0.43

Of the compounds above, these have a cyano group:
Results for N#Cc1cnn2c1[nH]c(=O)c1ccccc12 ?
CDC25B-CDK2 inh: -0.81

What do the screens show for `COCc1cc(C)nc(OCC2OC(c3ccccc3OC)=NN2C(C)=O)c1C#N` (centres undefined)?
TAR Tat displ: -0.43

Results for COc1ccc(C2C=C(c3ccc(Cl)cc3)NC(=O)C2C#N)cc1 (centres undefined) ?
CDC25B-CDK2 inh: 0.31; TAR Tat displ: 0.43

Other structures follow.
How did Nc1c(-c2nc(-c3ccc4c(c3)OCO4)no2)nnn1-c1ccccc1F do in these assays?
TAR Tat displ: -1.78

Results for Fc1ccc(NC(=S)Nc2ccc3cn[nH]c3c2)cc1 ?
CDC25B-CDK2 inh: 20.1*

How did CC(C)CCN1C(=O)c2ccc(-c3ccco3)n2CC1(C)C(=O)NC1CCCCC1C (centres undefined) do in these assays?
TAR Tat displ: 0.25

What do the screens show for `COc1nccn(-c2ccc3c(c2)OCO3)c1=O`?
CDC25B-CDK2 inh: -0.98; TAR Tat displ: 1.2

How did CCOC(=O)N1CCN(C(=O)CSc2ccc(-c3cccs3)nn2)CC1 do in these assays?
TAR Tat displ: 0.54

Not a hit list; about 0.94% have a hit in one of these screens.
